# KSHV LANA nucl = LANA-nucleosome interaction inhibition. FITC-LANA1-23 / chicken nucleosome fluorescence polarization; stronger effect = lower value. z-score (test concentration not listed). 51,000 tested, 0.3% active;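 active means both repeat wells score below -2 in polarization z-score versus plate sample wells, excluding overly bright wells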;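 further: 100 nL library stock added to about 30 µL; numbers are from one replicate; some results filed as inactive read as strong as hits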
#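 test system = FITC-LANA peptide and chicken nucleosomes | amount = 240 nM purified chicken nucleosomes (480 nM peptide binding sites), final | reagent = 50 nM FITC-LANA1-23 probe | medium = TEN-BT buffer, pH 7.5 | doses = single compound addition by pin transfer, 100 nL per well | timing = 10–45 min, room temperature | detection = fluorescence polarization | repeats = duplicate plates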
# Ab BasE inh = inhibitors of Acinetobacter baumannii siderophore enzyme BasE | 84,000 tested, 0.1% active | inhibition, % (no concentration beside the values) | AID 485350 | purified BasE, fluorescence polarization binding displacement;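 active means both replicates above 25% with normal brightness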;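 further: 0% = negative plate control signal and 100% = positive plate control signal; stock transfer was 100 nL into about 30 µL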
# * hit, by the source's call; . = not tested or not shown; & = joins results of further samples.
compound	KSHV LANA nucl	Ab BasE inh
COc1ccc(OCC(=O)N(C)C)cc1	0.78	0.1
O=C(Oc1ccc2c(c1)OCO2)c1cc2c(s1)CCCC2	.	1.5
COc1ccc(O)c(C(=O)c2cc(C#N)c(=O)n(CCN3CCOCC3)c2)c1	.	-0.3
Ic1ccc(Nc2nc3nonc3nc2N/N=C\c2ccco2)cc1	2.4	-3.5
COc1ccc(CNC(=O)c2oc3ccc4nc(N(C)C)sc4c3c2C)cc1	0.51	0.3
CC(C)(C)OC(=O)N1CCC(n2nccc2N)CC1	-1.3	2.1
CC(C(=O)N(C)Cc1ccccc1)N1CCN(C/C=C/c2ccccc2)CC1 (stereo unspecified)	.	-1.5
CC1CC(NS(=O)(=O)c2cc3c4c(c2)CCN4C(=O)CC3)CC(C)(C)C1 (stereo unspecified)	-1.2	0.1
C=CCC(NCc1ccco1)c1ccccc1 (stereo unspecified)	-0.45	0.2
CCC(NC(=O)Nc1cc(C)ccc1OC)c1ccccc1 (stereo unspecified)	-0.31	0.4
S=c1nc(-c2ccccc2)[nH][nH]1	0.27	1.9
CCOC(=O)c1oc2c(c1C)-c1nn(CC)cc1CC2	1.4	-4.9
O=C(CNCC(c1ccc(F)cc1)N1CCOCC1)NCc1ccccc1Cl (stereo unspecified)	.	2.5
O=C(O)c1ccc(S(=O)(=O)c2ccc3c(c2)C(=O)N(c2ccc(O)cc2)C3=O)cc1	0.07	0.8
CC(Sc1nc(-c2ccccc2)cs1)C(=O)NC(N)=O (stereo unspecified)	.	-5.3
CC(C)(C)C(=O)NC(=S)Nc1ccccc1	-0.37	0.8
CC(C)N(CCNc1nnnn1-c1ccccc1)C(C)C	.	0.4
CCCC(C(=O)NC1CCCC1)N(Cc1ccccc1)C(=O)Cn1nnc(-c2ccc(C)o2)n1 (stereo unspecified)	-0.24	-1.0
O=C(NCc1ccc2c(c1)CCO2)C1CCC1	0.8	-2.5
CC(C)c1ccc(C(=O)NCCCn2ccnc2)cc1	.	2.6
Cn1c(SCc2cccnc2)nnc1C1CCCN(C(=O)C2CCCO2)C1 (stereo unspecified)	-0.55	2.0
O=C(NCc1cccs1)c1csc(C2COc3ccccc3O2)n1 (stereo unspecified)	-0.25	1.9
O=C(NCCCc1ccccc1)c1cc2c(s1)CS(=O)(=O)C2	0.33	-2.3
CCN1/C(=C2\C(=O)N(C)C(=S)N2c2ccccc2)C=Cc2cc(C)ccc21	0.9	-1.9
CCOC(=O)Nc1ccc2c(c1)N(C(=O)CCNC)c1ccccc1S2	0.35	-6.2
O=C(CSc1nc2ccccc2c(=O)n1-c1ccccc1)N1CCOCC1	1.3	-1.1
O=C1/C(=C/c2cccnc2)SC(=S)N1N1CCOCC1	-0.81	0.9
CCCCn1c(CO)cnc1S(=O)(=O)CC1CCC1	-0.34	-1.4
CCN(CC)C(=O)N(CC)C1CCCCC1	0.18	1.5
CCOC(=O)c1nc2c3ccccc3ncn2n1	.	-3.2

# Five compounds picked at random from the list so far, as already listed:
compound	KSHV LANA nucl	Ab BasE inh
CCCCn1c(CO)cnc1S(=O)(=O)CC1CCC1	-0.34	-1.4
Cn1c(SCc2cccnc2)nnc1C1CCCN(C(=O)C2CCCO2)C1 (stereo unspecified)	-0.55	2.0
CC(C)c1ccc(C(=O)NCCCn2ccnc2)cc1	.	2.6
CCOC(=O)c1nc2c3ccccc3ncn2n1	.	-3.2
CC(C)N(CCNc1nnnn1-c1ccccc1)C(C)C	.	0.4

# Grouped by structure: the entries above containing a furan ring, fused or not.
compound	KSHV LANA nucl	Ab BasE inh
Ic1ccc(Nc2nc3nonc3nc2N/N=C\c2ccco2)cc1	2.4	-3.5
COc1ccc(CNC(=O)c2oc3ccc4nc(N(C)C)sc4c3c2C)cc1	0.51	0.3
C=CCC(NCc1ccco1)c1ccccc1 (stereo unspecified)	-0.45	0.2
CCOC(=O)c1oc2c(c1C)-c1nn(CC)cc1CC2	1.4	-4.9
CCCC(C(=O)NC1CCCC1)N(Cc1ccccc1)C(=O)Cn1nnc(-c2ccc(C)o2)n1 (stereo unspecified)	-0.24	-1.0

# Additional records follow.
compound	KSHV LANA nucl	Ab BasE inh
N#Cc1c2c(c(-c3ccccc3)[nH]c1=S)CCCC2	0.64	0.7
COc1ccccc1/C=C/C(=O)NCCc1ccccn1	.	2.6
CN1CCN(C(CC(=O)Nc2ccc(Oc3ccccc3)cc2)C(=O)O)CC1 (stereo unspecified)	-0.6	-1.5
CC(C)c1n[nH]c(=S)n1C	1.5	-1.1
COCCn1cc(C(=O)c2cc(F)ccc2OCC(=O)Nc2cc(C)on2)cc(C#N)c1=O	.	-0.5
CCN(CC)C(=O)CSc1[nH]c2ccccc2c(=O)c1C(=O)OC	0.36	-2.8
Cc1noc(C)c1CSc1ncccc1C(=O)Nc1ccnn1C1CCN(C)CC1	.	-1.9
C/C(CCC1CC(C)OC1=O)=N\NC(N)=O (stereo unspecified)	-0.58	0.4
O=c1ccn2c(n1)OC1C(O)C(CO)OC12 (stereo unspecified)	-0.6	-0.6
N#Cc1c(NC(=O)CSc2ccccn2)oc(-c2ccccc2)c1-c1ccccc1	.	-1.1
CCCCN(CC)C(=O)c1cc2c(C)nn(-c3ccc(Cl)cc3)c2s1	.	24
COc1ccc(-c2nnc(SCC(=O)NC(Cc3ccccc3)C(=O)O)o2)cc1 (stereo unspecified)	.	1.5
CCn1c2ccccc2c2nnc(NCc3ccccc3)nc21	0.64	-0.3
c1ccc(CSc2nn3cc(-c4ccccc4)nc3s2)cc1	.	1.4
CCC(c1nnc(SCC(C)C#N)n1Cc1ccccc1)N(C)C (stereo unspecified)	.	-1.1
O=C(COn1nnc2ccc(Cl)cc21)Nc1ccccc1	.	1.8
c1cncc(-c2nc(NCc3ccncc3)c3ccccc3n2)c1	.	-1.6
COc1ccc(C(=O)O)cc1S(=O)(=O)NC(C)(C)C	.	4.4
O/N=C/c1cn(CC(O)Cn2cnc3ccccc32)c2ccccc12 (stereo unspecified)	0.35	3.0
CS(=O)(=O)N1Cc2ccccc2CC1C(=O)OCC(=O)N1CC(=O)Nc2ccccc21 (stereo unspecified)	.	1.2
COc1ccc(Cl)cc1NC(=O)Cn1nc(C(F)(F)F)cc1C	-0.089	3.2
COc1cc(C(=O)N/N=C/c2ccc(OC(=O)N3CCOCC3)cc2)cc(OC)c1OC	0.35	0.9
O=C(CN1C(=O)C2CC=CCC2C1=O)OCC(=O)c1c[nH]c2ccccc12 (stereo unspecified)	.	-2.6
CCNC(=O)CCCc1nc(-c2ccccc2)no1	0.22	-1.0
O=C(NC(O)C(=O)c1cccs1)c1cccnc1 (stereo unspecified)	.	1.0
O=C(c1ccccc1)N1CCN(c2ccc(NCC3CCCO3)nn2)CC1 (stereo unspecified)	-0.37	-0.3
O=C1c2ccccc2C(=O)C1C(c1ccco1)C1C(=O)c2ccccc2C1=O	0.057	0.2
COC(=O)C1=CN(c2cccc(C(F)(F)F)c2)C=C(C(=O)OC)C1c1ccsc1	.	3.7
Cn1c(=O)c2ccccc2n(Cc2ccc(Cl)cc2)c1=O	-1.4	1.5
OC(c1nc2ccccc2o1)(c1c[nH]c2ccccc12)C(F)(F)F (stereo unspecified)	.	1.5
CC1CCCN(CC(=O)Nc2ccc(C(=O)O)cc2)C1 (stereo unspecified)	0.054	0.3
CCOC(=O)C(C(=O)Nc1ccc(Br)cc1)C1CCCCC1 (stereo unspecified)	.	3.2
O=C(COC(=O)/C=C/c1ccco1)Nc1cccc(C(F)(F)F)c1	.	1.8
O=C(O)CCc1nnc2ccc(NCc3ccco3)nn12	-0.64	2.2
COC(=O)[C@@H](NS(=O)(=O)c1ccc(Cl)c(Cl)c1)C(C)C	.	2.7
O=C(Cn1nnc(-c2cccc(F)c2)n1)N1CCCC1c1ccc2c(c1)OCCO2 (stereo unspecified)	.	0.2
O=C(O)c1nn(CC(=O)N2CCc3ccccc32)c(=O)c2ccccc12	.	-0.3
COC(=O)C1C(=O)C=C(N2CCOCC2)CC1(C)C (stereo unspecified)	0.27	4.6
Cc1ccc2c(CSc3nncs3)cc(=O)oc2c1	.	1.8
C=CCn1c(CCNC(=O)c2ccc(OC)cc2)n[nH]c1=S	0.49	4.6
CCOC(=O)C1CCCN(C(=O)CSCc2nc(-c3ccc(Cl)cc3)oc2C)C1 (stereo unspecified)	0.51	1.6
CN(CCCn1cnc2c([nH]c3ccc(Cl)cc32)c1=O)C1CCCCC1	-0.35	-2.8
Cc1ccc(N=CC2=C(O)CCCC2=O)cc1	0.52	0.8
O=C(Nc1ccccc1)Nc1ccc(Cl)c(Cl)c1	.	2.6
c1cc2c3c(cccc3c1)C(N1CCOCC1)=N2	.	6.2
CC1(C)CC(NCCNC2=CC(=C(C#N)C#N)CC(C)(C)C2)=CC(=C(C#N)C#N)C1	.	-0.7
COc1cc(CNCc2cccc(C(F)(F)F)c2)cc(OC)c1	.	1.0
O=C(CSc1nnc(Nc2ccccc2)s1)NC1CCS(=O)(=O)C1 (stereo unspecified)	.	-0.8
CCn1c(SCC#N)nnc1-c1ccc(S(=O)(=O)N2CCCC2)cc1	0.025	0.1
O=C(O)CSc1nc2ccccc2c(=O)n1-c1ccccc1	-1.1	0.8
CC(=O)Nc1cccc(N=Cc2cc(Br)ccc2O)c1	-0.37	1.8
O=C(O)C1CC(=O)N(C2CC2)C1 (stereo unspecified)	1.7	-4.1
CCn1c(C(=O)N2CCC(C(=O)NCCCc3ccccc3)CC2)cc2sccc21	0.82	-2.7
C=CCN(CC=C)C(=O)C1CCN(Cc2cc(Br)c(O)c(OC)c2)CC1	-0.92	0.1
COc1ccc(/C=C2/C(=O)N(C)c3ccccc32)cc1	.	2.5
CCOc1cc2[nH]c(=O)n(CC3CCC(C(=O)NCCC(C)C)CC3)c(=O)c2cc1OCC (stereo unspecified)	-0.78	-1.4
COc1ccc(-c2cc(-c3nnc(COC(=O)C4COc5ccccc5O4)o3)c3ccccc3n2)cc1OC (stereo unspecified)	.	0.9
O=C(O)c1ccc(Cl)c(N2CCCC2=O)c1	.	-0.2
COc1ccc(CNC(=O)C2C3C=CC(O3)C2C(=O)O)cc1OC (stereo unspecified)	-0.59	3.4
COc1ccc(S(=O)(=O)N2CCCC2C(=O)Nc2c(C)n(C)n(-c3ccccc3)c2=O)cc1 (stereo unspecified)	.	0.5

# The list continues.
compound	KSHV LANA nucl	Ab BasE inh
CCC(Sc1nc2ncccc2[nH]1)C(=O)NC1CCCC1 (stereo unspecified)	-0.095	0.8
COc1ccc(-c2nn(CN(C)C3CCCCC3)c(=S)n2CC2CCCO2)cc1 (stereo unspecified)	.	-0.5
O=C(Nc1ccccc1C(F)(F)F)C1c2ccccc2Oc2ccccc21	.	3.5
Cc1nc2ccccc2n1C1CC(=O)N(c2ccccc2)C1=O (stereo unspecified)	.	-1.1
COC(=O)c1cc(-c2ccc(Cl)cc2)nc2onc(C(C)C)c12	.	3.0
Cc1cc(C)c2c(=O)n(C(=O)c3ccc(Cl)cc3)sc2n1	3.9	-8.8
CC1CC(C)CN(S(=O)(=O)c2ccccc2)C1 (stereo unspecified)	-0.52	0.4
Cn1c(N)c(C(=O)CN2c3cccc4cccc(c34)S2(=O)=O)c(=O)n(C)c1=O	.	-1.0
O=S1(=O)CCC(N(CC2CCCO2)S(=O)(=O)C2=Cc3ccccc3CC2)C1 (stereo unspecified)	.	-0.3
O=C(NCc1n[nH]c(=S)n1-c1ccccc1)c1ccc(S(=O)(=O)N2CCCCC2)cc1	0.14	0.2
CCCCOC1COC(OCCCC)CO1 (stereo unspecified)	.	2.3
O=C(CN(CCc1ccc(F)cc1)CC(=O)N1CCc2ccccc21)N1CCc2ccccc21	.	4.4
CC(C)N(C(=O)Cn1cnc2ccccc21)C(C)C	0.005	-0.8
O=C1NC(C2CC=CCC2)Nc2ccccc21 (stereo unspecified)	.	0.8
Cn1c2c(c(=O)n3ncnc13)CCCC2	0.2	2.2
Cc1cc(C)c2c(c1C(=O)Nc1cccc(C(F)(F)F)c1)CC(C)(C)C2=O	.	3.6
CCC(=O)N=c1sc2c(OC)ccc(OC)c2n1CC	-1.3	1.1
CCn1c(SCC(=O)c2ccccc2)nnc1-c1c[nH]c2ccccc12	-1.4	-1.8
COc1cccc(C(=O)NC(=S)Nc2ccc(O)c(-c3nc4ccccc4s3)c2)c1	.	1.0
CC(C)[C@H]1COC(c2cccc(C3=N[C@@H](C(C)C)CO3)n2)=N1	.	1.6
CCC1=C(C)CN(C(=O)NCCc2ccc(S(=O)(=O)NC(=O)NC3CCC(C)CC3)cc2)C1=O (stereo unspecified)	-0.25&0.046&-0.15	3.0
Cc1cc(NC(=O)CN2CCCc3ccccc32)no1	.	2.2
CC(C)Cc1nnc(NC(=O)CCCN2C(=O)CCC2=O)s1	0.3	-0.4
CCOc1ccc(C2CC(=O)NC3=C2C(=O)CCC3)cc1 (stereo unspecified)	-0.3	0.4
O=C(CSc1nc(O)cc(=O)n1-c1ccccc1)N1CCc2ccccc21	0.83	-0.1

# Screening data deposited in PubChem by ICCB-Longwood Screening Facility, Harvard Medical School.

# A portion of the library; count on the stated rates, not on these rows.
